# Compound activity deposited in PubChem by National Center for Advancing Translational Sciences (NCATS).
# PINK1 expr mod = modulators of PINK1 expression; PINK1 immunofluorescence, high-content cytometry, 24 h; actives 0.2% (n = 410,000); AID 624263; Potency, µM (titrated, usually from 76.6 µM), inactives show top-dose activation (PINK1 increase), usual class: activators; active = well fitted activation curve with a large enough effect; inconclusive = small, poorly fitted or top-dose-only effect; inactive = flat fitted curve, though single readings scatter; cell line not stated here;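 also: % of control where 0% means no effect; nearly all actives have a fitted effect of over 65% in size; a mitochondrial uncoupler was the plate control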
#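 Decision-based qHTS: stable cells, 24 h exposure to five compound concentrations, CCCP as control. Fixed cells stained for PINK1 plus nuclear, mitochondrial and cell markers, cytometer read.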
# ClpP mod = qHTS Assay for Activators of ClpP; ATP-dependent Clp protease proteolytic subunit (Bacillus subtilis (strain 168)), P80244; purified B. subtilis ClpP, FRET peptide cleavage, 20 min; Potency, µM (doses to about 57.5 µM), without a hit: at the top dose activity change, negative = active; actives 1.9% (n = 340,000); active = well fitted falling curve with a large enough effect; inconclusive = small, poorly fitted or top-dose-only effect; inactive = no such curve, though single readings can be large or run the other way; also: the source files actives as falling curves though it sought activators and does not explain the sign; nearly all actives have a fitted effect of over 65% in size; many hits overshoot -100%
# Target sequence (P80244 whole entry, looked up): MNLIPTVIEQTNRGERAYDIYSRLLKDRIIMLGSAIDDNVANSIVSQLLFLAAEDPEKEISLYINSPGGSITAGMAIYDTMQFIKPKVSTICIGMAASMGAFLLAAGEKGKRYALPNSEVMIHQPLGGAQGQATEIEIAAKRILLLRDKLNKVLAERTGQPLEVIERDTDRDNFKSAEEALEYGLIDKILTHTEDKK
#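 ClpP 10 microg/mL final, pH 8 Tris/KCl buffer with BSA, glycerol, Tween-20; compound pinned in; FRET-FV substrate; RT 20 min; Ex320/Em430; ΔFRET vs ADEP 5.8 microM, DMSO, no enzyme.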
# * hit, by the source's call; ? = inconclusive. Potency is read from the fitted curve at half-maximal effect.
SMILES,PINK1 expr mod,ClpP mod
COc1ccc2c(c1)CC(C(=O)NCCN1CCN(c3cccc(C)c3C)CC1)CO2 (stereo not given),0.3%,-0.6%
CCCc1nn2c(=O)cc(COC(=O)c3ccc(NC(=O)C(C)Oc4ccccc4)cc3)nc2s1 (stereo not given),-0.4%,-6.4%
COc1ccc(CCNC(=O)Cc2c(C)c3c(cc(C)c4c(C)coc43)oc2=O)cc1,-0.6%,-12%
CC(C)Oc1ccc(C(=O)Nc2ccc3oc(-c4ccncc4)nc3c2)cc1,4.1%,-26%
O=C(NCc1ccccc1Cl)c1cc(=O)[nH]c2ccc(S(=O)(=O)N3CCCCC3)cc12,1.9%,0.3%
O=C(NCc1ccccc1)C(=O)NCC(c1ccco1)S(=O)(=O)c1ccccc1 (stereo not given),-0.5%,1.4%
O=S(=O)(c1ccc2c(Cl)cccc2c1)N1CCN(c2nc(-c3cccs3)nc3ccccc23)CC1,5.2%,4.5µM*
CCCN(C(=O)c1cc2c(=O)oc3ccccc3c2s1)c1cccc(Cl)c1,-0.5%,-5.0%
O=C(CNC(=O)c1ccccc1)OCC(=O)c1ccccc1,-0.7%,-2.4%
COc1ccc2cc3cc(C(=O)Nc4ccccc4C)oc3nc2c1,2.3%,39%
Nc1nc2ccc(Cl)cc2cc1C(=O)NCc1ccc(Oc2ccccc2)cc1,3.8%,-11%
COc1ccccc1C(=O)Nc1c(C(=O)N(C)c2ccccc2)sc2nc(C)cc(C)c12,-1.3%,-0.4%
CCC(=O)N1CCc2cc(OC)c(OC)cc2C1COc1ccc2c(C)cc(=O)oc2c1 (stereo not given),0.3%,-24%
CCOC(=O)c1ccc(NC(=O)c2cn(-c3ccccc3)nc2-c2ccc(C)cc2)cc1,-1.0%,-0.5%
COc1ccc(C(=O)NNc2ncnc3c2cnn3-c2ccccc2)cc1,6.4%,-6.2%
Cc1ccc(-c2nc(CS(=O)CC(=O)NCc3ccccc3Cl)c(C)o2)cc1 (stereo not given),-1.3%,-17%
O=C(CCc1ccccc1)N(Cc1cccnc1)c1nc2ccc(F)cc2s1,-6.2%,-1.0%
CCOC(=O)c1cccc(NS(=O)(=O)c2ccc(-c3cnc(C4CC4)o3)cc2)c1,4.0%,-3.2%
COc1c([N+](=O)[O-])ccc(N)c1N,0.5%,1.1%
COc1ccc(-c2coc3c2c(C)cc2oc(=O)c(CC(=O)O)c(C)c23)cc1,2.3%,-10%
COCCN1CCN(Cc2ccc(C(=O)NC(C)C)cc2)C(=O)C1=O,-0.1%,-0.4%
CCc1nc(SCC(=O)Nc2ccc(NC(C)=O)cc2)n[nH]1,0.8%,0.5%
Cc1cccc(C)c1NC(=O)C1c2ccccc2OCC(=O)N1Cc1ccccc1 (stereo not given),?,1.7%
Cc1ccc(CNC(=O)CCCCn2c(=O)c3ccccc3n(Cc3ccc(Cl)cc3)c2=O)cc1,4.8%,-0.2%
COc1ccc(S(=O)(=O)n2nc(C)c(S(=O)(=O)N3CCC(C)CC3)c2C)cc1OC,0.8%,-2.5%
CC(=O)Nc1ccc(Nc2nc3c(S(=O)(=O)c4cccc(Cl)c4)nnn3c3ccsc23)cc1,-0.6%,-6.5%
CC1CCN(S(=O)(=O)c2ccc3c(c2)CCN3C(=O)Nc2ccc(Br)cc2)CC1,1.0%,21%
CCC(=O)N1CCc2cc(S(=O)(=O)N(C)c3cccc(C)c3)ccc21,2.2%,3.0%
O=C(CCCn1c(=O)[nH]c2ccc(Br)cc2c1=O)N1CCN(c2cccc(Cl)c2)CC1,0.6%,-4.4%
CC(C)c1ccc(NC(=O)Cn2cc(S(=O)(=O)Cc3cccc(Cl)c3)c3ccccc32)cc1,-0.3%,0.3%

# Another view of 3 compounds above:
COc1c([N+](=O)[O-])ccc(N)c1N
  PINK1 expr mod = 0.5%	ClpP mod = 1.1%

COc1ccc(-c2coc3c2c(C)cc2oc(=O)c(CC(=O)O)c(C)c23)cc1
  PINK1 expr mod = 2.3%	ClpP mod = -10%

COCCN1CCN(Cc2ccc(C(=O)NC(C)C)cc2)C(=O)C1=O
  PINK1 expr mod = -0.1%	ClpP mod = -0.4%

# Back to the main list, repeating the three entries before the break.
SMILES,PINK1 expr mod,ClpP mod
CCC(=O)N1CCc2cc(S(=O)(=O)N(C)c3cccc(C)c3)ccc21,2.2%,3.0%
O=C(CCCn1c(=O)[nH]c2ccc(Br)cc2c1=O)N1CCN(c2cccc(Cl)c2)CC1,0.6%,-4.4%
CC(C)c1ccc(NC(=O)Cn2cc(S(=O)(=O)Cc3cccc(Cl)c3)c3ccccc32)cc1,-0.3%,0.3%
COc1cccc(-c2ccc3c(N)c(C(=O)Nc4ccc(C)c(F)c4)sc3n2)c1,3.9%,-4.6%
O=C(NCCCN1CCCCC1)c1[nH]c2ccccc2c1Sc1ccc(Cl)cc1,-0.4%,-2.7%
Cc1ccc(CNC(=O)C2CCCN(c3nn4cc(-c5ccc(C)cc5)nc4s3)C2)cc1 (stereo not given),1.4%,0.1%
O=C(CN1C(=O)C2CCCCN2c2ccc(C(=O)N3CCCC3)cc21)NCc1cccc(Cl)c1 (stereo not given),-1.1%,-16%
CCOCCCNC(=O)c1ccc2c(=O)n(CCc3ccc(OC)c(OC)c3)c(=O)[nH]c2c1,1.9%,-4.0%
OCC1OC(n2cnc3c(NO)ncnc32)C(O)C1O (stereo not given),-0.7%,3.7%
CCc1ccc(C2CC(=O)c3c([nH]c(C(=O)OCc4ccc(C)cc4)c3C)C2)cc1 (stereo not given),3.0%,-1.6%
CCOC(=O)c1c(NC(=O)/C=C/c2ccc(C)cc2)sc2c1CCCC2,-0.2%,-0.8%
C=C(C)Cn1c(=O)c2c(nc3n2CCN3c2cc(C)cc(C)c2)n(C)c1=O,-1.0%,5.0%
CCOc1ccc2nc(N3CCCC(C(=O)NCCc4ccc(SC)cc4)C3)sc2c1 (stereo not given),-1.3%,-1.6%
O=C(C1COc2ccccc2O1)N1CCN(c2nc3c(F)cccc3s2)CC1 (stereo not given),-0.8%,0.7%
Cc1ccc(NC(=O)Cn2cc(C(=O)c3cccs3)c3ccccc32)cc1C,0.3%,-29%
COc1cccc(N2CCN(C3=NS(=O)(=O)C(c4ccc(C)cc4)=C3C)CC2)c1,-1.7%,-2.6%
CCOC(=O)[C@]12CCC=C1N(CCC1=CCCCC1)C(=O)[C@H](CC(=O)NCCCOC)C2,0.1%,0.4%
CCN(CC)CCCNC(=O)c1ccc2nc(N3CCCCC3)sc2c1,1.1%,4.0%
Cc1nc(-c2ccc(F)cc2)sc1CCNC(=O)C(=O)Nc1ccc2c(c1)OCCO2,0.2%,6.3%
CC(C)(C)OC(=O)N1CCC(c2c(C(=O)NCc3ccco3)cnn2-c2ccccc2Cl)CC1,-0.6%,0.1%
CCc1ccccc1NC(=O)Cn1nc(-c2cc(C)ccc2C)c2c(c1=O)CCCC2,-0.5%,0.6%
CCC(CC)c1nn2c(=O)cc(COc3ccc(NC(=O)c4ccc(C)cc4)cc3)nc2s1,8.5%,0.6%
CC1CCCCN1CCCNC(=O)Cn1ncc2c3ccccc3n(Cc3ccccc3F)c2c1=O (stereo not given),-1.1%,4.4%
O=C(CCS(=O)(=O)c1nc(-c2cccs2)cc(C(F)(F)F)n1)Nc1ccc(Br)cc1,-1.0%,32µM*
COc1ccc(NC(=O)CSC2=Nc3ccccc3C3=NC(CC(=O)NCc4ccco4)C(=O)N23)cc1 (stereo not given),1.5%,-4.1%
O=C(Cn1c(=O)n(-c2ccccc2)c(=O)c2c3c(sc21)CCCC3)Nc1ccccc1,2.2%,-2.2%
Cc1ccc(NC(=O)Cn2c(=O)n(-c3ccc(C)cc3)c(=O)c3c2cnn3C)cc1,1.2%,-1.4%
Cc1nc(N2CCOCC2)c2c(C(=O)Nc3cccc(C(F)(F)F)c3)c(C)oc2n1,0.1%,1.0%
COc1cccc(C(=O)Nc2cc(-c3ccccc3)nn2-c2ccccc2)c1,3.2%,-5.6%
Cn1ncc2c(NCc3ccco3)ncnc21,-0.8%,-2.2%
CC(C)OCCCN1C(=O)c2[nH]nc(-c3ccccc3O)c2C1c1ccccc1F (stereo not given),4.0%,0.4%
NC(=O)C1(N2CCCCC2)CCN(C(=O)Nc2ccc(Cl)c(Cl)c2)CC1,0.8%,-2.3%
CC(NC(=O)CCn1c(=O)c2cccn2c2ccc(F)cc21)c1ccccc1 (stereo not given),2.7%,-8.0%
Cc1cc(C)cc(NC(=O)N2CCC(CN3CCOCC3)CC2)c1,0.5%,-1.4%
Cc1ccccc1-c1noc(CSc2nnc(-c3ccncc3)n2-c2ccc(F)cc2)n1,0.1%,0.6%
Cc1cccc(Cn2c(=O)n3nc(-c4ccccc4)nc3c3ccccc32)c1,0.4%,?
COc1ccc(OCC(=O)Nc2cc(-c3nc4ccccc4o3)ccc2Cl)cc1,4.3%,-2.5%
Cc1ccc(NC(=O)c2cccc(NC(=O)N3CCSc4ncccc43)c2)cc1Cl,0.0%,?
CC(C)(C)C1CCc2c(sc3nnn(CCOc4ccccc4)c(=O)c23)C1 (stereo not given),2.7%,0.3%
O=S1(=O)CC(N2CCCCC2)CN1Cc1cn(Cc2ccc(F)cc2)nn1 (stereo not given),-0.9%,-2.7%
O=C(Nc1ccc(S(=O)(=O)N2CCC(c3nc4ccccc4s3)CC2)cc1)c1ccc(F)cc1,0.2%,-1.9%
Nc1c(C(=O)Nc2ccc(C(F)(F)F)cc2)sc2nc(-c3cccs3)ccc12,0.2%,3.2%
CC(C)(C)C(=O)c1c(N)[nH]c(C(=O)c2ccccc2)c1-c1ccc(F)cc1,8.4%,0.4%
Cc1cc2c(cc1S(=O)(=O)NCc1ccc(F)cc1)OCC(=O)N2,0.1%,0.7%
COc1ccc(-c2nc(CSc3nncn4c3cc3oc(C)cc34)c(C)o2)cc1,-1.2%,-22%
O=C(CCCn1c(=O)c2cccn2c2ccccc21)Nc1cc(C(F)(F)F)ccc1Cl,8.6%,-15%
Cc1ccc(OCCCC(=O)Nc2sc3c(c2C(N)=O)CCCC3)cc1,4.2%,-13%
Cc1ccccc1-c1nnc(SCC(=O)N2CCCCC2)o1,2.3%,2.4%

# Exported as tab-separated lines: 2 of the compounds above
Structure	PINK1 expr mod	ClpP mod
Nc1c(C(=O)Nc2ccc(C(F)(F)F)cc2)sc2nc(-c3cccs3)ccc12	0.2%	3.2%
CC(C)(C)C(=O)c1c(N)[nH]c(C(=O)c2ccccc2)c1-c1ccc(F)cc1	8.4%	0.4%

# Carrying on.
SMILES,PINK1 expr mod,ClpP mod
Cc1cccc(C(=O)Nc2nnc(S(=O)(=O)N(C)c3ccccc3C)s2)c1,-0.4%,-9.4%
Cc1ccc(Nc2c(-c3ccc(N4CCOCC4)cc3)nc3ccc(Cl)cn23)cc1,-4.3%,-26%
COc1ccc(CCNC(=O)Cn2c(=O)cc(C(F)(F)F)c3c(C)nn(C)c32)c(OC)c1,0.1%,6.9%
O=C(NCCc1csc(-c2ccc(Cl)cc2)n1)c1cccs1,0.1%,-23%
CCCc1cc(=O)[nH]c(Nc2ccc(C(=O)O)cc2)n1,1.2%,-3.4%
O=C1c2ccccc2C(=O)N1c1cccc(N2C(=O)c3ccccc3C2=O)n1,0.9%,-0.1%
Cc1ccc(C2CC(=O)n3nc(-c4ccc(Cl)cc4)nc3S2)cc1 (stereo not given),-0.5%,-2.9%
CCOC(=O)c1ccc(NC(=O)C2=C(C)C(=O)OC23CCCCCC3)cc1,0.6%,1.9%
COc1ccc(S(=O)(=O)N(CC(=O)Nc2cccc(C)c2)c2ccc(C)cc2)cc1OC,0.0%,0.9%
Cc1cccc(CNC(=O)c2ccc(Cn3c(SCc4cccc(F)c4)nc4cccnc43)cc2)c1,1.1%,?
CCCCN(CC)C(=O)Cn1nc(C)c2c(C)n(-c3ccccc3)nc2c1=O,-0.6%,-2.6%
Cc1ccc(C)c(CNC(=O)c2ccc3c(c2)nc2n3CCOC2)c1,0.6%,1.3%
CCc1ccc(NC(=O)CC2C(=O)N(c3ccccc3)C(=O)N2C(C)C)cc1 (stereo not given),0.8%,1.6%
Cc1ccc(CSc2nc3cccnc3n2Cc2ccc(C(=O)NC3CC3)cc2)cc1,7.7%,-21%
CCC(c1nnnn1-c1ccc2c(c1)OCCO2)N1CCN(c2ccc(C(F)(F)F)cc2[N+](=O)[O-])CC1 (stereo not given),-0.7%,1.3%
COc1ccc(N2CCN(c3ncnc4c3cnn4-c3ccc(C)c(Cl)c3)CC2)cc1,0.1%,-2.6%
CCOC(=O)c1cc(-c2ccc(OC)cc2)n(CCC(=O)Nc2cccc(C(C)=O)c2)c1C,4.7%,-0.9%
COC(=O)c1scc(-c2ccc(C)cc2)c1S(=O)(=O)Nc1cc(Cl)c(OC)cc1OC,1.1%,1.4%
COC(=O)c1ccccc1NC(=O)C1CCCN(C(=O)c2cnn(-c3ccc(F)cc3)c2-n2cccc2)C1 (stereo not given),2.0%,?
CCOc1ccccc1NC(=O)CSc1nc2cc(OC)c(OC)cc2c2nc(-c3ccccc3)nn12,1.0%,-2.6%
CCOc1ccc(S(=O)(=O)N(CC(=O)NCCSCc2ccccc2)c2ccccc2)cc1,5.5%,1.5%

# An excerpt, so the mix of outcomes need not match the whole.
